# Screens (PubChem)
# NPYLR7 agonist = mosquito NPYLR7 agonism. AID 1259423. HEK293T NPYLR7/Galpha15, GCaMP6s calcium fluorescence. activation, % at 10 µM. 270,000 tested, 0.15% active; in the data active = activation above about 40%;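 note: 0% = vehicle and 100% = reference agonist at the receptor; some compounds past the cut are filed as inactive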
# NPYLR7 agonist max-min = second read-out of NPYLR7 agonist, no call of its own (marks repeat the call); activation, %; measured here: Max-Min RFU normalised activation; some inactives read as strong as hits;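 span of the calcium signal over five minutes; 0% = vehicle and 100% = native peptide agonist; compound fluorescence can raise it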
# * marks the source's active call; other numbers are inactive results; & = joins results of further samples. Only part of the results is shown; the hit share may differ from the screen's.
# The opening 2 entries, to show the layout:
SMILES,NPYLR7 agonist,NPYLR7 agonist max-min
COc1ccccc1CN(C(=O)CNC(=O)c1ccccc1)C1CC1,-3,-1
CCOc1ccccc1C(CC(=O)N(C)OC)NC(C)=O (stereo not given),2,4

# The whole of this part, from the start:
SMILES,NPYLR7 agonist,NPYLR7 agonist max-min
COc1ccccc1CN(C(=O)CNC(=O)c1ccccc1)C1CC1,-3,-1
CCOc1ccccc1C(CC(=O)N(C)OC)NC(C)=O (stereo not given),2,4
O=C1OC(/C=C/c2ccccc2)=NC/1=C/c1cccc(F)c1,2,-2
CCCc1cc(C(=O)N2CCN(c3ncccn3)CC2C(=O)O)cs1 (stereo not given),4,1
C=CCc1ccc(O)c(OC)c1,-9,-11
COc1cccc(-c2cc(C(=O)NCc3ccco3)nc3cc(-c4ccccc4)nn23)c1,7&10,16&31
O=C(NC1CC1)[C@@]1(OCc2cccc(C(F)(F)F)c2)CC(OCc2cccc(F)c2F)[C@H](O)[C@H](O)C1 (stereo not given in full),3,12
CCCCNc1nccnc1-c1cc(OC)c(OC)c(OC)c1,-5,-7
CC(=O)N(C)c1nc(CN2CCCC2c2c(C)nn(C)c2C)cs1 (stereo not given),2,1
CCC(C)N(CC(=O)N1CCc2sccc2C1c1ccc(Cl)cc1)C(=O)c1ccc([N+](=O)[O-])cc1 (stereo not given),0,12
Cc1cccc(CC(=O)Oc2coc(CSc3nc(C)cc(C)n3)cc2=O)c1,-15,-14
CN(C)S(=O)(=O)c1cc(NC(=O)C23CC4CC(CC(O)(C4)C2)C3)ccc1Cl,-4,-6
C=CCn1c(SCc2ccc(C(=O)NCCOC)cc2)nnc1-c1ccccc1Cl,18,22
COC(=O)CC1C(=O)NCCN1S(=O)(=O)c1cc(Cl)ccc1Cl (stereo not given),7,0
COc1ccc2c(c1)CCN(S(=O)(=O)CCNC(=O)c1snnc1C)C2,10,3
O=C1CCCN1CCCN1COc2ccc3c(=O)c(-c4ccccc4)c(C(F)(F)F)oc3c2C1,2,-2
CCOC(=O)C1=C(C)N=c2s/c(=C\c3cccc([N+](=O)[O-])c3)c(=O)n2C1c1ccc2c(c1)OCO2 (stereo not given),0,-7
c1cc2c(cc1-n1cnnc1)N1CCN=C1S2,11,4
CCCCc1ccc(NC(=O)NCC(=O)N2CCC(C(=O)NCc3cccc(OC)c3)CC2)c(C)c1,8,11
CC1CCCN(S(=O)(=O)N2CCCC2CC2CCCCC2)C1 (stereo not given),4,2
COc1ccc2[nH]c(=O)c(CN(C)C(C)C(=O)N(C)C)cc2c1 (stereo not given),-2,-4
Cc1cc(=O)[nH]c2nc(N)ccc12,-5,-7
COc1ccc(Cl)cc1NC(=O)c1cc(-c2ccc(C)s2)nc2ccccc12,-17,-23
CCc1nc2c(OCC(=O)C(C)(C)C)cccn2c1N(C)C(C)=O,14,1
Cc1cc(C(=O)COC(=O)Cc2ccc(Cl)cc2Cl)c(C)n1Cc1ccco1,-6,-11
Cc1cc(C)n(CCNC(=O)c2n[nH]c3c2CCC3)c(=O)n1,24,13
O=C(N[C@@H]1CCCCC1NC(=O)C1CCCN(C(=O)c2ccc(C(F)(F)F)cc2)C1)c1ccccc1 (stereo not given in full),25,22
CC(C)(C)c1nnc(Cn2c(=O)[nH]c3ccccc3c2=O)s1,-21&1,-23&-1
O=C(Nc1ccc2c(c1)OCCO2)c1cc2ccccc2oc1=O,-5,-7
Nc1cc(-c2cccc(Cl)c2)nn1-c1ccc(C(=O)NC(c2ccccc2)c2ccccc2)cc1,2,-5
Cc1cccc(C2c3cccn3-c3ccccc3N2C(=O)CN(C(=O)Nc2ccc(Cl)cc2)C2CC2)c1 (stereo not given),-3,0
COCC(=O)Nc1c(-c2ccccc2OC)nc2cc(C)ccn12,-14,-13
Cc1cccnc1[C@H](C)NC(=O)CCc1csc(N)n1,1,3
CC(=O)Nc1cccc(C(=O)NCc2ccc(-c3csc(C)n3)cc2)c1,-1,-3
CCOC(=O)CSc1nc2c(c(=O)n1-c1ccccc1)SCC2,-2,-3
C#CCn1c(O)c(N=NC(=O)CNC(=O)c2ccccc2)c2ccccc21,4,1
Cc1ccc(-c2cc(C(F)(F)F)n3nc(C(=O)N4CCN(c5ccccc5Cl)CC4)cc3n2)cc1,-12,-16
O=C(Nc1ccc(N2CCC(Cc3ccccc3)CC2)c(C(=O)NCc2ccc(F)cc2)c1)c1cccc(Br)c1,2,17
COC(=O)C1=C(C)N=c2s/c(=C/c3ccc(OC)c(OC)c3)c(=O)n2C1c1ccccc1Cl (stereo not given),-12,-15
C#C[C@]1(O)CCC2C3CCc4cc(OC)ccc4C3CC[C@@]21C (stereo not given in full),-3,-7
O=C(COc1ccc(-n2cnnn2)cc1)N1CCCC2(CCNCC2)CC1,7,4
COc1cc(Cl)cc2cc(C(=O)N3CCCC4(CNC(=O)O4)C3)oc12 (stereo not given),7,-3
CCn1c(SCC2CCOCO2)nnc1N1CCOCC1 (stereo not given),9,5
O=C(C1COc2ccccc2O1)N1CCN(Cc2cc(=O)c(OCc3ccc(C(F)(F)F)cc3)co2)CC1 (stereo not given),22,7
CCCN(CC(=O)Nc1cc(-c2ccccc2)nn1-c1ccc(F)cc1)C(=O)NC12CC3CC(CC(C3)C1)C2,-2,5
CCC(=O)N1CCC1(C)C(=O)Nc1ccc2c(c1)OCO2 (stereo not given),6,1
c1cn(CCCNc2ncnc3sc4c(c23)CCCCC4)cn1,9,8
CN(CCc1ccccc1)c1nc(-c2ccc(-c3ccccc3)cc2)nc2ccccc12,-5,2
COc1cccc(-c2cc(-c3ccc(C(=O)NCc4ccc(F)c(F)c4)cc3)[nH]n2)c1,14,7
Cc1cc2oc3c(c(=O)c2cc1Cl)C(c1ccc(Cl)cc1)N(C)C3=O (stereo not given),1,-1
CCCNC(=O)N(C)CCN1C(=O)CSC1c1cc(OC)ccc1OC (stereo not given),20,16
CC1(C(=O)Nc2ccccc2F)CCN1CCc1ccccc1 (stereo not given),-5,-1
CN1CC(c2nc3ccccc3n2Cc2ccc(C(C)(C)C)cc2)CC1=O (stereo not given),-12,-13
O=C(CC1SC2=NCCN2C1=O)Nc1ccc(Br)cc1 (stereo not given),13,5
CCN1CCN(Cc2nc3c(c(=O)n(C)c(=O)n3C)n2CC(=O)c2ccccc2)CC1,1,3
Cc1cc(N2CCSCC2)ccc1NS(=O)(=O)c1ccccc1,2,1
O=C(CC1CCCC1)Nc1cc(C(F)(F)F)ccc1-n1cncn1,1,0
COCCNC(=S)NN=C1c2ccccc2-c2ccccc21,5,4
Cc1ncsc1C(=O)NCc1cc(Br)ccc1F,-33,-30
COc1ccccc1-c1nc(COC(=O)c2nnn(-c3ccc(Cl)cc3)c2C)c(C)o1,1,-3

# Going on with the list:
SMILES,NPYLR7 agonist,NPYLR7 agonist max-min
Cc1c(C(=O)NCc2cccs2)sc(=O)n1Cc1ccc(S(=O)(=O)N(C)C)cc1,15,2
CCCc1[nH]n(-c2ccccc2)c(=O)c1/C=C1\NC(=O)N(Cc2cccc(F)c2)C1=O,5,11
CCN(CC)S(=O)(=O)c1ccc2c(c1)nc(SCc1c(F)ccc(F)c1Cl)n2Cc1ccco1,17,10
CCOc1cc(CNC(=O)N2CCOC(C)C2)ccc1OC(F)F (stereo not given),2,-1
Cc1c(Cl)cccc1N1CN(C(=O)CN(Cc2ccccc2)C(=O)c2ccc(C(C)(C)C)cc2)CC1=O,24,21
CC(C)(C)c1ccc(Oc2nnc(-c3ccc(F)cc3)c3ccccc23)cc1,-9,-10
C=CCO[C@H]1[C@H](NC(=O)COC)c2ccccc2C12CCN(C(=O)/C=C/c1cc(F)ccc1F)CC2,19,10
Cc1c(C(=O)OC2CCCC2C)[nH]c2c1C(=O)CCC2 (stereo not given),-9,-8
CCCCN(CC(=O)Nc1cc(-c2ccccc2)nn1-c1ccc(Cl)cc1)C(=O)NCc1ccccc1,19,17
c1ccc(C2CCCN2Cc2ccc3occc3c2)nc1 (stereo not given),4,-2
COc1cccc(N=C2NN=C(c3ccc(NC(=O)C(C)(C)C)cc3)CS2)c1,8,3
Cc1ccc(NC(=O)CSc2ccc3nnc(-c4ccccc4)n3n2)cc1Cl,1,36
CN(C)c1ccc(C(C#N)=C(C#N)C#N)cc1,8,5
O=C(CCl)Nc1cc2c(cc1Cl)C(=O)c1ccccc1C2=O,-5&-2,-10&-10
CCCCC1C=CCN1C(=O)c1ccc(=O)[nH]c1 (stereo not given),-5,-6
CC(NCC1CCC1)c1ccccc1 (stereo not given),-7,-9
COc1ccccc1NC(=O)N(Cc1ccc(OC)c(OS(C)(=O)=O)c1)C(C)C,10,18
O=C(Nc1ccccc1N1CCCC1=O)N1CCC(c2ccccc2)C1 (stereo not given),10,10
COc1cccc(C(=O)c2c(N)c(C(=O)Nc3cc(C)ccc3C)c3ccccn23)c1,3,0
CCn1c(C2CCCN(C(=O)C3CCNCC3)C2)nn(CCN(C)C)c1=O (stereo not given),3,1
Cn1ccnc1C(=O)C1CCCN(C(=O)CCN2Cc3ccccc3OC(c3ccccc3)C2)C1 (stereo not given),18,-1
O=C(CSc1nc2c([nH]c3ccccc32)c(=O)n1-c1ccc(F)cc1)Nc1nccs1,1,37
COc1ccc(C(=O)N=Nc2c(O)[nH]c3ccccc23)cc1OC,-4,-10
COc1cc(OC)cc(C(=O)N(Cc2nc3cc(C)ccc3o2)C(C)C)c1,3,-6

# Reformatted: entries from further up
canonical_smiles	NPYLR7 agonist	NPYLR7 agonist max-min
CCCCC1C=CCN1C(=O)c1ccc(=O)[nH]c1 (stereo not given)	-5	-6
CC(NCC1CCC1)c1ccccc1 (stereo not given)	-7	-9
COc1ccccc1NC(=O)N(Cc1ccc(OC)c(OS(C)(=O)=O)c1)C(C)C	10	18
O=C(Nc1ccccc1N1CCCC1=O)N1CCC(c2ccccc2)C1 (stereo not given)	10	10

# Remaining list, next part
SMILES,NPYLR7 agonist,NPYLR7 agonist max-min
CCCCCCCCCCCCCCCCOP(=O)(O)OCC[N+](C)(C)C,-2&2,-11&-7
Cc1ccc(C)c(S(=O)(=O)C2(C(=O)O)CCCC2)c1,-7,-7
COCCNC(=O)Cc1ccc(NC(=O)c2ccc(OC)c(OC)c2OC)cc1,16,18
O=C(NCc1ccco1)C1(N2CCCCC2)Cc2ccccc2C1,3,1
COc1ccc(C(=O)C2CCCN(Cc3ccc(NC(C)=O)cc3)C2)c(C)c1 (stereo not given),20,9
COC(=O)C1CC(=O)c2ccsc2C1 (stereo not given),-5,-4
O=C(NCCNc1cc(-n2cccn2)ncn1)c1ccc(F)cc1F,-7,-12
S=C(NCCCN1CCOCC1)Nc1ccc(N2CCOCC2)cc1,5,2
O=C(CSc1ccc(F)cc1)Nc1ccc(N2CCOCC2)cc1,4,2
CC(C)(C)c1cc(N2CCN(Cc3ccc4c(c3)OCO4)CC2)nc(SCc2ccc(C(=O)O)cc2)n1,7,8
O=C(O)c1ccc(-c2nccs2)s1,-5,0
CCCC(=O)OCC(O)CN(CCOC)Cc1cccn1Cc1cccc(F)c1 (stereo not given),23,24
CCOC(=O)CSc1nc2c(c(=O)n1-c1cccc(OC)c1)SCC2,-5,-10
CSc1nnc(CC2CCN(C(=O)CN(C)Cc3cccnc3)CC2)n1C,3,-8
Fc1cccc(F)c1-c1nc(-c2ccncc2)no1,6,3
Cc1cc(C)nc(SCc2cc(=O)c(OC(=O)Cc3ccc(F)cc3)co2)n1,-16,-15
COc1ccc(Br)cc1C=C1N=C(c2cc(OC)c(OC)c(OC)c2)OC1=O,11,17
O=C(Nc1cc(CCc2ccccc2)ccn1)c1cnc[nH]1,3,2
COC(=O)c1ccc(CSc2nnc(Cc3c(C)[nH]c(=O)[nH]c3=O)o2)cc1,8,6
COc1ccc(-n2cnn(CCC#N)c2=S)cn1,-6,-5
COc1cccc(CN2CCC(C(=O)NC(c3ccccc3)c3ncccc3C)CC2)c1 (stereo not given),11,1
CCCNC(=O)CSc1nc2cc(Cl)ccc2o1,7,11
O=C(Cn1cnc2ccccc21)N1CCN(c2ccccn2)CC1,6,7
C#CCNC(=O)C(C(C)C)N1CC2=C(C1=O)C(c1cccc(Oc3ccccc3)c1)NC(=O)N2CC (stereo not given),-2,0
Cc1c(CN(C)C(=O)C2CCC(=O)N(CCN3CCOCC3)C2)[nH]c2ccccc12 (stereo not given),33,21
Cc1cc(C(=O)N2CCC3(CCCNC3)C2)ccc1N1CCOCC1 (stereo not given),2,0
CS(=O)(=O)Nc1c(O)ccc2c1CCCC2C1=NCCN1 (stereo not given),5,-4
Cc1ccc(C(C)(C)C)cc1Sc1ccc2nnnn2n1,7,3
Cc1cc(Oc2cnn(C)c(=O)c2Nc2cccc(C(=O)N3CCCC3)c2)ccc1Cl,21,25
CCc1nc2n(n1)C(=O)C(C(c1ccccc1)N1CCC(C(N)=O)CC1)S2 (stereo not given),15,23
Cc1cc(C)n2c(NC(C)(C)C)c(-c3ccc(Cl)cc3)nc2c1,-1,1
CC(C)(C)n1nnnc1SCc1ccc(OCC(F)(F)F)nc1,-2,65
Cc1ccc(NC(=O)C2CC(=O)N(Cc3ccccc3)C(=Nc3ccccc3)S2)c(C)c1 (stereo not given),-16,-22
Cc1c(CCC#N)c(=O)n2c3ccccc3nc2n1CC(=O)c1ccccc1,-14,-18

# Five of the compounds above, with bars between the fields:
molecule | NPYLR7 agonist | NPYLR7 agonist max-min
CCc1nc2n(n1)C(=O)C(C(c1ccccc1)N1CCC(C(N)=O)CC1)S2 (stereo not given) | 15 | 23
Cc1cc(C)n2c(NC(C)(C)C)c(-c3ccc(Cl)cc3)nc2c1 | -1 | 1
CC(C)(C)n1nnnc1SCc1ccc(OCC(F)(F)F)nc1 | -2 | 65
Cc1ccc(NC(=O)C2CC(=O)N(Cc3ccccc3)C(=Nc3ccccc3)S2)c(C)c1 (stereo not given) | -16 | -22
Cc1c(CCC#N)c(=O)n2c3ccccc3nc2n1CC(=O)c1ccccc1 | -14 | -18
